Anthrax LT inh: anthrax lethal toxin internalization inhibition. 0.67% of 70,000 active. Cells, anthrax lethal toxin internalization, FRET ratio (460/530). Potency, µM (highest dose often 40 µM), for inactives: at the top dose activity change, negative = inhibition, hits mostly inhibitors; active = well fitted falling ratio curve with the 530 nm signal flat; inconclusive = other ratio curves, or a change in one channel alone; inactive = flat curves in the ratio and both channels; the % refers to the ratio; note: % is set by controls: 0 for no effect and ±100 for the full control effect; nearly all actives have a fitted effect of over 50% in size; tested in ME-180 cells; beta-lactamase reporter
Prx2 Sm inh: Schistosoma mansoni Prx2 inhibition; S. mansoni Prx2 activity coupled to TGR/GSH (TGR is thioredoxin glutathione reductase), NADPH fluorescence loss, qHTS; some inactives read as strong as hits; Potency, µM; 0.07% of 65,000 active; AID 448; active means full or partial inhibition curve with a strong effect at the top dose; inconclusive means weaker partial or single-point curve; inactive means no accepted curve; note: series up to 57 µM; many of its hits are not listed in these tables
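Prx2 activity was followed as the loss of NADPH fluorescence (ex 365/em 450 nm), read every 30 sec for 8 min after H2O2 start. The enzyme mix (50 nM Prx2, 25 nM TGR, GSH, NADPH; pH 7.4 phosphate buffer) was incubated with compound for 15 min at room temperature first.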
Active calls of the source: *; u = inconclusive; x = no result given; & = joins results of further samples; [ ] = another dose, or the depositor's remark. Potency is the fitted concentration of half-maximal effect.

Sample of the layout:
SMILES	Anthrax LT inh	Prx2 Sm inh
CC(C)C(C(=O)Nc1ccc2c(c1)OCCO2)N1C(=O)c2ccccc2C1=O (configuration not stated)	2%	>57
O=C(Cn1ncc2c(=O)oc3ccccc3c21)N1CCCc2ccccc21	-4%	>57
CCOc1cc2[nH]c(=O)n(CCCN3CCCC3=O)c(=O)c2cc1OCC	-1%	>57

All compounds of this part, previewed entries included:
SMILES	Anthrax LT inh	Prx2 Sm inh
CC(C)C(C(=O)Nc1ccc2c(c1)OCCO2)N1C(=O)c2ccccc2C1=O (configuration not stated)	2%	>57
O=C(Cn1ncc2c(=O)oc3ccccc3c21)N1CCCc2ccccc21	-4%	>57
CCOc1cc2[nH]c(=O)n(CCCN3CCCC3=O)c(=O)c2cc1OCC	-1%	>57
CC(O)CO (configuration not stated)	-8%&-5%	x
CCCCNC(=O)Cn1cnc2c(cnn2-c2ccc(C)c(C)c2)c1=O	3%	>57
Cc1cc(OCC(=O)O)c2c3c(c(=O)oc2c1)CCCC3	u	>57
O=C(O)CCNc1cc2ccccc2cc1C(=O)O	1%	x
CN(C)Cc1cc(C(C)(C)C)ccc1-c1ccc(C(C)(C)C)cc1CN(C)C	4%[8 µM]	>57
Cc1ccc(S(=O)(=O)CCC(=O)Nc2ccc3c(c2)OCO3)cc1	-6%	>57
Cc1c(/C(O)=C2/C(=O)C(=O)N(Cc3cccnc3)C2c2cccs2)cnn1-c1ccccc1 (configuration not stated)	14%	>57
O=C(Nc1cc(C(F)(F)F)ccc1N1CCOCC1)c1cncc(Br)c1	1%	>57
COC(=O)c1ccccc1NC(=O)CSc1nnc(COc2cccc(OC)c2)n1C	3%	>57
CCOC(=O)Cn1c2ccccc2c2nc3ccccc3nc21	-9%	>57
CCc1cc2c(nc1CC)CCN(CC/C(C)=N/O[C@@H](C)c1cn([C@@H]3COC[C@@H]3O)nn1)C2	-8%[1.6 µM]	x
CCOC(=O)/C=C1\Nc2ccccc2SC1=O	u	>57
Cc1cc(NC(=O)CSc2nc(-c3ccco3)cc(C(F)(F)F)n2)n(-c2ccccc2)n1	5%	>57
CC(=O)N1CCc2cc(C(=O)CN3CCN(c4ccccc4F)CC3)ccc21	-11%	>57
CCOc1cc(C2NC(=O)NC(C)=C2C(=O)OC(C)CC)cc(Br)c1O (configuration not stated)	-5%	>57
CC1(C)OC(=O)C(=CNc2ncccn2)C(=O)O1	-2%	>57
O=C1CN2C(=N1)N(Cc1ccccc1)c1ccccc12	u	>57
O=C(CCn1c(=S)[nH]c2ccccc2c1=O)N1CCOCC1	21%	>57
C=CCN1CCN(C(c2cc(OC)ccc2OC)c2nnnn2CC2CCCO2)CC1 (configuration not stated)	-1%	>57
Cc1ccc2[nH]c3c(NCCCN4CCCC4=O)ncnc3c2c1	9%	>57
Cc1c(C2Nc3ccccc3NC3=C2C(=O)CC(C)(C)C3)cnn1C (configuration not stated)	13%	>57
Fc1ccc(-c2noc(C3CCN(Cc4cccnc4)CC3)n2)cc1	-2%	>57
CCN1CCN(CCCNC(=O)C2CCCN(c3nnc(-n4cccc4)s3)C2)CC1 (configuration not stated)	-1%	>57
CCOC(=O)c1cc2c(=O)n3cccc(C)c3nc2n(CCc2ccc(OC)c(OC)c2)c1=N	-8%	>57
CN(CCNC(=O)Cn1c(=O)sc2ccccc21)Cc1ccccc1	-21%	>57
O=[N+]([O-])c1ccc(NN=C2c3ccccc3Cc3ccccc32)c([N+](=O)[O-])c1	-20%[8 µM]	>57
O=C(CNCc1ccco1)Nc1ccccc1-n1cccc1	-5%	>57
Cc1cc(C)n(-c2nc3ccccc3c3nc(C)nn23)n1	-3%	>57
CCCn1nnc2sc3c(c2c1=O)CCC(C)C3 (configuration not stated)	-24%	>57
CCOC(=O)C1CCCN(C(=O)C2CCN(S(=O)(=O)N3CCC4(CC3)OCCO4)CC2)C1 (configuration not stated)	13%	>57
O=NN1CCCCC1	-8%	x
CN1CCc2nc(SCC(=O)Nc3ccc(F)cc3)c(C#N)cc2C1	9%	>57
CN(C)c1ccc2c(c1)OC(N)=C(C#N)C2c1cccc(F)c1 (configuration not stated)	6.3µM*	x
COc1ccc(S(=O)(=O)N2CCN(C)CC2)c2ccccc12	19%	>57
COc1ccc(N2CCN(Cc3nc(N)nc(Nc4ccc(C)c(Cl)c4)n3)CC2)cc1	x	>57
Cc1cc(C2N=C(N)Nc3nc4ccccc4n32)c(C)n1-c1ccccc1Cl (configuration not stated)	u	>57
COc1c2c(nc3occc13)C(CCC(C)(C)O)(OC)C(O)CC2 (configuration not stated)	7%	>57
O=C(Nc1ccc2oc(-c3ccccc3F)nc2c1)c1cncc(Br)c1	5%	>57
Cc1cc(C)n(-c2nc3ccccc3nc2N2CCCCCC2)n1	u	>57
c1nnc2c3c4c(sc3ncn12)CCCC4	x	>57
Cc1nn2c3cc(N4CCOCC4)ccc3nc2c2ccccc12	6%	>57
COc1ccc(N2CCN(C(=O)CSc3nnc4nc(C)cc(C)n34)CC2)cc1	3%	>57
CC1CCCN(CC(=O)Nc2ccc(S(=O)(=O)N3CCCCCC3)cc2)C1 (configuration not stated)	0%	>57
COC(=O)[C@@]1(Cc2ccccc2)[C@H]2c3cc(C(=O)N4CCCC4)n(CCN4CNCC4=O)c3C[C@H]2CN1C(=O)c1ccccc1	3%	>57
COC(=O)c1cccc(NC(=O)CSc2nc(C)cc(=O)[nH]2)c1	-16%	>57
CCCC1C(C#N)=C(N)Oc2cc(C)n(C)c(=O)c21 (configuration not stated)	u	x
CCOC(=O)c1ccc(Oc2nc(NC)nc(OC)n2)cc1	0%	>57
Cc1ccc(-c2noc(CCC(=O)NCc3ccc4c(c3)OCO4)n2)cc1	8%	>57
CCn1cc(C(=O)Nc2cc3c(cc2NC(C)=O)OCCO3)c(=O)c2ccc(C)nc21	-4%	>57
CC(C)(c1cc(Br)c(O)c(Br)c1)c1cc(Br)c(O)c(Br)c1	u	x
Cc1nc(Cc2nnc(SCc3nc(N)nc(Nc4ccccc4C)n3)o2)cs1	-7%	>57
CC(=O)c1c(C(C)=O)c(C)n(NC(=O)c2ccccc2O)c1C	-24%	>57
CCOC(=O)CN1CC23C=CC(O2)C(C(=O)NC2CCCCCC2)C3C1=O (configuration not stated)	3%	>57
CCN(CC)CCC(=O)NC(C)(C)Cc1ccc(O)cc1	3%	>57
C=CCNc1nc(NC(C)(C)CO)nc(OCC)n1	3%	>57
CCCCCCC1=Cc2cc(OC)c(OC)cc2C(CC(=O)/C=C/OC)O1 (configuration not stated)	-15%[8 µM]	x
Cc1ccc(C(c2nnnn2CCC(C)C)N2CCN(C)CC2)cc1 (configuration not stated)	6%	>57
(listing goes on)
SMILES	Anthrax LT inh	Prx2 Sm inh
Cc1nc2c(C(=O)NCCC3=CCCCC3)c[nH]n2c(=O)c1Cl	-20%	>57
Cc1cc2c(cc1C)NC1=C(N2)O[C@H](c2c[nH]c3ccc(COc4ccccc4)cc23)C1=O	-17%[8 µM]	>57
CS(=O)(=O)N1CCC[C@@]2(CCN(Cc3ccc(C#N)cc3)C2)C1	u	>57
COc1cccc(-c2ccc3ncnc(Nc4ccccc4)c3c2)c1	u	>57
CC(C)Cn1c(Br)nc2c1c(=O)n(CCC#N)c(=O)n2C	-5%	>57
CN1CCN(c2ncncc2-c2ccc(C(=O)N(C)C)cc2)CC1	1%	>57
CN(Cc1ccco1)c1ncnc2ccc(-c3ccc4c(c3)OCO4)cc12	u	>57
CCOC(=O)c1sc(N(Cc2ccccc2)C(=O)CN2C(=O)CN(C)C2=O)nc1C	6%	>57
c1cc(C(c2nnnn2C2CCCC2)N2CCOCC2)ccn1 (configuration not stated)	1%	>57
O=C(O)CSc1c2c(nc3cc(C(=O)N4CCOCC4)ccc13)CCCC2	-20%	>57
CCCc1cc(Nc2cccc(OC)c2)n2ncnc2n1	-19%	>57
O=C(CN(Cc1ccccc1)S(=O)(=O)c1ccccc1)NC1CC1	1%	x
COc1cc(CNCCO)ccc1OCC(=O)Nc1ccc(Br)cc1	-3%	>57
N#Cc1ccccc1Cn1c(-c2cscn2)nc2ccccc21	8%	>57
CCC(=O)Nc1ccc(C(=O)n2ccc(C)n2)cc1	5%	>57
COCCCn1c(SCC(=O)OC2CCCCC2)nnc1-c1ccco1	-1%	>57
COc1cc(C)c(Cl)cc1S(=O)(=O)N(C)C	3%	>57
NCCNCC1CCNCC1	0%[8 µM]	>57
COC(=O)c1[nH]c(C)c(/C(O)=C2\C(=O)C(=O)N(CCN(C)C)C2c2cc(OC)ccc2OC)c1C (configuration not stated)	u	>57
COc1ccc(CCNC(=O)c2nnn(CC(=O)Nc3ccccc3)c2N)cc1OC	-8%	>57
CC1CN(S(=O)(=O)c2cccc(C(=O)OCC(=O)Nc3ccc4c(c3)OCO4)c2)CC(C)O1 (configuration not stated)	6%	u
CCn1c(Cc2cccs2)nnc1SCC(=O)Nc1ccc(OC)c(OC)c1	0%	>57
CC1(C)CCCN(C(=O)c2coc(=O)c(Br)c2)C1	u	>57
C/C(CCc1oc2ccccc2c1-c1ccc(C)o1)=N/O	-6%	>57

Seven structures out of the list, ordered by formula weight, high to low.
SMILES	Anthrax LT inh	Prx2 Sm inh
CCOC(=O)C1CCCN(C(=O)C2CCN(S(=O)(=O)N3CCC4(CC3)OCCO4)CC2)C1 (configuration not stated)	13%	>57
CCOC(=O)c1cc2c(=O)n3cccc(C)c3nc2n(CCc2ccc(OC)c(OC)c2)c1=N	-8%	>57
COC(=O)c1ccccc1NC(=O)CSc1nnc(COc2cccc(OC)c2)n1C	3%	>57
Cc1cc(C2N=C(N)Nc3nc4ccccc4n32)c(C)n1-c1ccccc1Cl (configuration not stated)	u	>57
CCOc1cc2[nH]c(=O)n(CCCN3CCCC3=O)c(=O)c2cc1OCC	-1%	>57
Cc1ccc2[nH]c3c(NCCCN4CCCC4=O)ncnc3c2c1	9%	>57
CCCc1cc(Nc2cccc(OC)c2)n2ncnc2n1	-19%	>57

Going on with the list.
SMILES	Anthrax LT inh	Prx2 Sm inh
CN1C(=S)SC(N(O)C(=O)NC2CCCCC2)C1(C)C (configuration not stated)	-12%	>57
CC(C)CC(=O)N1CCN(C(=O)CCC2CCCC2)CC1	-3%	>57
CN(C)CCNc1nc2c(c(=O)[nH]c(=O)n2C)n1CCCc1ccccc1	-11%	>57
C=CCn1c(Cc2cccs2)nnc1SCC(=O)c1cccc(Br)c1	-5%	x
COc1cc(S(=O)(=O)NC2CCCCC2C)ccc1Cl (configuration not stated)	10%	>57
CN(Cc1nc2ccccc2n1C)S(=O)(=O)c1ccc(F)cc1	u	>57
CC1CCCC(C)N1S(=O)(=O)c1ccc(NC(=O)c2ccccc2C(=O)N2CCOCC2)cc1 (configuration not stated)	-15%	>57
c1ccc(-n2nnnc2-n2cnc3ccccc32)cc1	1%	>57
CCNc1ccc(C(=O)OCC)cc1NC(=O)c1cccc(S(=O)(=O)N2CCOCC2)c1	u	>57
COc1ccc([C@@H](Nc2ncccn2)c2cc3c(cc2O)OCO3)cc1	-22%[8 µM]	>57
CCOc1ncccc1C(=O)OCC(=O)Nc1cc(C(=O)OC)ccc1C(=O)OC	7%	>57
c1ccc(-c2nc(N3CCCCCC3)c3ccccc3n2)nc1	u	x
COC(=O)c1ccccc1NC1c2ccccc2C(=O)N1c1cccnc1 (configuration not stated)	-9%	>57
Cc1cc(OCC(=O)NCCN2CCOCC2)cc(C)c1Br	-2%	x
N#Cc1cccc(-c2nc(NCc3ccccc3)c3ccccc3n2)c1	u	>57
COc1cccc(NC(=O)c2ccc3c(c2)N(CC(=O)N2CCCCC2)C(=O)C(C)(C)O3)c1	21%	>57
COc1ccccc1N(C(C)=O)C1SC(=O)N(c2ccccc2)C1=O (configuration not stated)	9%	>57
CCCCn1c(SCc2c(C)noc2C)nc2cc(S(N)(=O)=O)ccc21	u	>57
CCC/C=C(\CCC)C(NS(=O)(=O)c1ccccc1)c1ccc(C(F)(F)F)cc1 (configuration not stated)	u	>57
CCC(C)N(C(=O)COC(=O)c1cn(CC)c2nc(C)ccc2c1=O)C1CCS(=O)(=O)C1 (configuration not stated)	0%	>57
CCOC(=O)N1CCN(S(=O)(=O)c2ccc(OC)c(Cl)c2)CC1	8%	>57
O=C1CN(c2nc3ccccc3n3cnnc23)CC(=O)N1CCc1ccccc1	-4%	>57
CCOc1ccccc1C1CC(=O)NC(SCC)=C1C#N (configuration not stated)	-2%	>57
CC(C)[C@H](NC(=O)NCCc1ccc(F)cc1)C(=O)O	u	>57
CCOc1ccc(NC(=O)C2CC(=O)N(C(C)C)C2)cc1 (configuration not stated)	3%	>57
O=C1CC(C(=O)Nc2ccccc2)C2(CCCC2)O1 (configuration not stated)	-2%	>57
COCCn1c(=O)c(-c2ccccc2)nc2cnc(Oc3cccc(Cl)c3)nc21	-4%	>57
COc1ccc(S(=O)(=O)N(CCN2CCOCC2)Cc2cc(OC)ccc2OC)cc1	-20%	>57
CC(C)(C)C(=O)OCOC(=O)[C@@H]1N2C(=O)[C@@H](NC(=O)[C@H](N)c3ccccc3)[C@H]2SC1(C)C	1%[3.58 µM]	>57
CCOc1ccc(CCNC(=O)C2CCN(c3nn4c(=O)cc(C)nc4s3)CC2)cc1	-2%	>57
CCOC(=O)CSC1=C(C#N)C(c2ccccc2OCC)C(C#N)C(=O)N1 (configuration not stated)	-18%	>57

Full records from above. Values in the order: Anthrax LT inh	Prx2 Sm inh
CN1CCN(c2ncncc2-c2ccc(C(=O)N(C)C)cc2)CC1 is entered as 1%	>57
CCn1cc(C(=O)Nc2cc3c(cc2NC(C)=O)OCCO3)c(=O)c2ccc(C)nc21 is entered as -4%	>57
CCC/C=C(\CCC)C(NS(=O)(=O)c1ccccc1)c1ccc(C(F)(F)F)cc1 (configuration not stated) is entered as u	>57

Only part of the results is shown; the hit share may differ from the screen's.
